Sa ugtP lethal: growth inhibition of ugtP-null S. aureus, primary screen, RN4220 ugtP deletion, OD600; 16 h; some inactives read as strong as hits; 0.54% of 330,000 active; growth inhibition, % (concentration not given with the values);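 active = z-score under -3 and OD600 up to 0.15 on both plates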;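 note: plate controls were untreated wells for no effect and antibiotic for full effect; wells of about 80 µL received 100 nL stock; the first replicate is given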
BJeLR viability: MLPCN primary cell-based screen for lethality selective to Ras in HRASV12 cells; inhibition, % (no concentration beside the values); BJeLR (HRASV12) viability, CellTiter-Glo ATP luminescence, 48 h; reference of the scale not given here; AID 1554, 2009; 0.17% of 300,000 active;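 active = replicate mean above 50%; inconclusive = above 50% but judged a plate artefact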;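 note: 50 nL library stock added to about 25 µL; numbers are from one replicate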
RN4220 kill: growth inhibition of S. aureus RN4220, primary screen, OD600. inhibition, % (no concentration beside the values). 16 h. 0.33% of 330,000 active;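 active = z-score of -3 or lower and OD600 up to 0.18 on both plates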;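 note: plate controls were untreated cells for no effect and reference antibiotic for full effect; stock transfer was 100 nL into about 80 µL; one replicate is shown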
Autofluor counter: flagged as autofluorescent in microsphere protease counterscreen | compound autofluorescence counterscreen, microsphere flow cytometry; active compounds read high | fluorescence intensity (concentration not given with the values) | 3.1% of 360,000 active;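 active = at least 3 SD above the mean of all compounds, about 16000 in these data; inconclusive = too few beads counted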;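 note: 100 nL of 1 mM stock went into each well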
Mtb hypoxia rep: PubChem AID 1159583; M. tuberculosis hypoxia-regulated fluorescent reporter, fluorescence; fluorescence inhibition, % (concentration not given with the values); 0.1% of 300,000 active;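 active = 35 to 45% if threefold the growth effect, above 45% if 1.5-fold the growth effect; inactive = the rest, general growth blockers included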;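 note: wells of about 50 µL received 100 nL stock; 0% = vehicle wells and 100% = reference inhibitor wells; whole bacteria with a GFP reporter of the hypoxia response; strong numbers were not always called active; many hits fall short of the cut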
PrP UTR inh: inhibition of PrP 5' UTR reporter expression; cell-based PrP 5' UTR mRNA reporter, plate reader; inhibition, % (no concentration beside the values); 0.35% of 340,000 active;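 active = every replicate at 50% or more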;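 note: 0 = median of the neutral control wells; tested in H4 reporter cells; numbers are from one replicate; inactives centre near -14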
Mtb hypoxia rep growth: recorded beside Mtb hypoxia rep, whose call it bears; growth inhibition, %; measured here: M. tuberculosis growth (absorbance);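 0% = vehicle and 100% = reference antibiotic; read after six days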
Starred values were filed as active, the others as inactive; ? = inconclusive; nt = no result given; & = joins results of further samples.

SMILES	Sa ugtP lethal	BJeLR viability	RN4220 kill	Autofluor counter	Mtb hypoxia rep	Mtb hypoxia rep growth	PrP UTR inh
CC(C)CNC(=O)c1cc(-c2ccc(Cl)c(Cl)c2)on1	4	3	6.4	9821	5	8	-56
Cc1cc(OCc2cc(C(=O)NCCN3CCCCC3CO)no2)cc(C)c1Cl (centres undefined)	3	10	2.1	nt	6	2	-4
Fc1ccc(CSc2nncn2NCc2ccccc2)cc1	-2	0	3.1	21851*	-3	-4	-6
CN(C)c1ccc(NC(=O)CCN2C(=O)c3cccc([N+](=O)[O-])c3C2=O)cc1	4	-1	0.8	3675	9	15	-14
COc1ccc(/C=C/C(=O)c2cc(Br)ccc2OC(=O)c2ccco2)cc1OC	17	10	5.1	2542	16	3	-19
CCc1ccc(OCC(O)CNC(C)(C)C)cc1 (centres undefined)	28	6	4.4	6394	10	13	-26
Cc1occc1C(=O)N/N=C/c1c[nH]c2ccccc12	nt	-2	nt	22938*	nt	nt	-31
CC(C)(C)c1ccc(C(=O)N2CCCC2)s1	1	1	4.1	3469	nt	nt	-56
Cc1c(C(=O)NCc2ccccc2CN2CCCC2)oc2ccccc12	12	nt	3.5	4797	5	4	-15
O=C1[C@@H]2CSCN2C(=O)CN1CCc1cccc(F)c1	0	-7	-0.1	?	-2	-2	-9

Full records from above. Order of screens: Sa ugtP lethal | BJeLR viability | RN4220 kill | Autofluor counter | Mtb hypoxia rep | Mtb hypoxia rep growth | PrP UTR inh
`Fc1ccc(CSc2nncn2NCc2ccccc2)cc1` as listed: -2 | 0 | 3.1 | 21851* | -3 | -4 | -6
`CC(C)(C)c1ccc(C(=O)N2CCCC2)s1` as listed: 1 | 1 | 4.1 | 3469 | nt | nt | -56

Continuation.
SMILES	Sa ugtP lethal	BJeLR viability	RN4220 kill	Autofluor counter	Mtb hypoxia rep	Mtb hypoxia rep growth	PrP UTR inh
O=C(CSc1nnc(-c2ccncc2)o1)c1cccc([N+](=O)[O-])c1	13	-3	-11	4588	11	9	-25
O=C(CSc1nnc(-c2ccc(S(=O)(=O)N3CCCC3)cc2)o1)NCC1CCCO1 (centres undefined)	6	2	3.6	3735	6	-1	-13
Cc1ccnc(NC(=O)CCNS(=O)(=O)c2ccc(C)c(C)c2)c1	8	5	8.4	5198	6	12	-58
CCC(C)NC(=O)CSC1=Nc2ccccc2C2=NC(CCC(=O)NCc3ccco3)C(=O)N12 (centres undefined)	5	7	2.1	19491*	1	3	0
Cc1ccc2nc(SCC(=O)Nc3c(F)cccc3F)[nH]c2c1	1	-11	2.6	3532	3	0	-6
CCOC(=O)c1c(C)[nH]c(C)c1C(=O)CSc1nc2ccccc2c(=O)n1-c1ccc(Cl)cc1	-18	8	-4.4	2609	2	12	2
CNc1oc(/C=C/c2cccc(OC)c2)nc1C#N	1	-6	1.6	3886	7	6	-61
Cc1cc(C)c2c(c1)C(=c1sc3n(c1=O)CN(c1ccccc1)CN=3)C(=O)N2	-4	nt	0.7	nt	-6	4	nt
CC(C)(C)CC(=O)Nc1ccc(-c2nnc3n2CCCCC3)cc1	-2	13	2.8	3469	0	1	-13
CC(C)(C)c1ccc(/C=C/C(=O)Nc2cccnc2)cc1	10	-30	1.6	3835	10	14	-55
CCOC(CNCc1cc(C)c2[nH]c3ccccc3c2c1C)OCC	-17	nt	0.2	2985	4	10	-9
COc1ccc(NC(=O)Cn2nnc(C(=O)NCc3ccc(C)cc3)c2N)cc1Cl	-3	-12	9.8	5367	3	-2	-22
O=C(Cn1ccc2ccccc2c1=O)NCCC(=O)N1CCCCC1	0	-16	1.1	5848	2	-5	-13
CCCCC(=O)NC(c1ccccc1OC)c1ccc2cccnc2c1O (centres undefined)	6	37	12	3251	9	-2	33
Cc1ccnc(N2CCC(C(=O)Nc3ccc4c(c3)CCC4)CC2)n1	2	7	1.2	17140*	0	0	2
CN1C(=O)C(=O)N(CC(=O)N2CCc3ccccc32)C1=O	-3	-1	-1.7	2436	nt	nt	6
S=C1NCN(C2CCCCC2)CN1Cc1ccccc1	-7	1	11	1949	-4	1	-5
COc1ccccc1NC(=O)C1(C)Cc2ccccc2C(=O)O1 (centres undefined)	7	-2	-2.9	6157	6	14	-10
Cc1ccc(SCC(=O)Nc2ccc(F)cc2[N+](=O)[O-])cc1C	3	-10	11	2019	5	4	-5
O=C(C1=CC(c2ccc3c(c2)OCO3)CC(OCc2ccc(CO)cc2)O1)N1CCOCC1 (centres undefined)	1&-13	nt	6.2&-1.0	nt	20&7	11&3	nt
CCCCc1ccc(NC(=O)C2CCCO2)cc1 (centres undefined)	10	4	6.6	2977	5	10	-52
O=C(Nc1cccc(Cl)c1)c1cc2c(=O)n3ccccc3nc2s1	-1	4	7.2	5098	2	0	-17
Fc1ccc(-c2nnn(Cc3ccc(F)cc3Cl)n2)cc1	18	-4	-3.6	3701	nt	nt	-22
c1ccc2nc(-c3ccncc3)ccc2c1	-3	-4	6.2	8727	3	3	-45
COc1cc2[nH]c(=O)n(CCCC(=O)NC3CCCCC3)c(=O)c2cc1OC	5	-6	2.4	3724	6	4	-20
COc1ccc(CCNC(=S)NC(=O)c2ccc(Br)cc2)cc1OC	82	-1	11	3302	14	3	-45
Cc1ccc(OCC(=O)N(Cc2ccccc2)C(C)C)c([N+](=O)[O-])n1	4	-6	2.4	2096	12	9	-19
CSc1nnc([C@@H]2CCCN2C(=O)OC(C)(C)C)o1	4	3	9.3	3246	-1	2	-13
CC1(c2ccc(Cl)cc2)NC(=O)N(CC(=O)N2CCc3ccccc3C2)C1=O (centres undefined)	4	nt	3.5	4526	7	0	nt
CC1(C)C2CC=C(C=NNC(=S)NCCc3ccccc3)C1C2 (centres undefined)	14	nt	-3.4	nt	4	1	nt

Already shown: an excerpt of the list.
SMILES	Sa ugtP lethal	BJeLR viability	RN4220 kill	Autofluor counter	Mtb hypoxia rep	Mtb hypoxia rep growth	PrP UTR inh
Fc1ccc(-c2nnn(Cc3ccc(F)cc3Cl)n2)cc1	18	-4	-3.6	3701	nt	nt	-22
c1ccc2nc(-c3ccncc3)ccc2c1	-3	-4	6.2	8727	3	3	-45

Among those listed so far, these contain a thiophene ring, fused or not.
SMILES	Sa ugtP lethal	BJeLR viability	RN4220 kill	Autofluor counter	Mtb hypoxia rep	Mtb hypoxia rep growth	PrP UTR inh
CC(C)(C)c1ccc(C(=O)N2CCCC2)s1	1	1	4.1	3469	nt	nt	-56
O=C(Nc1cccc(Cl)c1)c1cc2c(=O)n3ccccc3nc2s1	-1	4	7.2	5098	2	0	-17

Following part:
SMILES	Sa ugtP lethal	BJeLR viability	RN4220 kill	Autofluor counter	Mtb hypoxia rep	Mtb hypoxia rep growth	PrP UTR inh
O=C(NC(=S)Nc1ccc2oc(=O)ccc2c1)c1cccc(Cl)c1	nt	-5	nt	5541	nt	nt	-17
O=C(NC(=S)N1CCN(c2ccccc2)CC1)c1c(F)cccc1F	-2	6	2.7	5159	6	2	0
CC1=C/C(=N\NC(=O)c2ccc(O)cc2)CC1	nt	0	nt	2080	nt	nt	-4
Cc1cc(C)nc(NC(=O)CSc2ccccn2)n1	8	1	3.2	4296	7	7	-21
COCc1cc(C2C(C(=O)c3ccco3)=C(O)C(=O)N2CCOCCO)ccc1O (centres undefined)	2	-8	3.4	3118	6	8	-20
O=C(N/N=C/c1c(Cl)cccc1Cl)c1n[nH]c2c1CCCC2	nt	0	nt	2255	nt	nt	-74
COc1ccc(CC(=O)O/N=C(\N)Cc2ccc([N+](=O)[O-])cc2)cc1	14	-8	0.2	4291	17	-4	-19
CCOc1ccc(NC2c3ccccc3C(=O)N2Cc2ccco2)cc1 (centres undefined)	-1	-3	-1.7	5802	-11	-2	0
CN1C(=O)C(O)(CC(=O)/C=C/C=C/c2ccccc2)c2ccccc21 (centres undefined)	nt	10	nt	2047	nt	nt	8
CN1C(=O)C(=Cc2ccccc2OCc2ccc(C(=O)O)cc2)C(=O)N(C)C1=O	0	-8	3.3	4719	5	-2	-8
CCCCN(C(=O)c1ccc(Br)o1)C1CCS(=O)(=O)C1 (centres undefined)	2	-5	3.6	nt	2	-2	-7
CCCNC(=O)c1oc2ccc3c(c2c1C)C=CC(C)(C)O3	12	0	2.2	3061	13	8	-55
COc1ccc(CCNC(=O)CC(C)=NNC(=O)Cc2cccc3ccccc23)cc1OC	12	nt	2.3	nt	15	6	nt
O=C(CSc1ncc(-c2ccccc2)n1-c1ccccc1)NCc1ccco1	30	-14	8.1	8045	11	22	-40
Cc1c(NC(=O)OCc2ccccc2)c(=O)n(-c2ccccc2)n1C	8	-4	-0.5	5141	3	12	-9
CNC(=S)NCC(O)c1ccc([N+](=O)[O-])cc1 (centres undefined)	5	0	5.6	3185	-8	5	-34
CCn1c2nc(SCCN3CCOCC3)nnc2c2cc(C)cc(C)c21	2	-8	0.0	4439	1	-2	-11
O=C(O)c1ccc(-c2cccc([N+](=O)[O-])c2)o1	6	7	2.8	3741	4	10	-12
COc1cccc(N(C(=O)c2ccco2)c2nc(-c3sc(NC(=O)c4ccco4)nc3C)cs2)c1	22	1	15	4105	-4	10	5
Cc1c(NC(=O)CN2C(=O)NC(C)(c3ccc(Cl)cc3)C2=O)c(=O)n(-c2ccccc2)n1C (centres undefined)	8	0	-1.0	6434	6	-9	-30
Cc1ccc(S(=O)(=O)N2CCOCC2)cc1C(=O)N1CCCCCC1	3	6	1.5	4616	0	-17	-19
Cc1ccccc1-c1cc(=O)c2ccccc2o1	13	nt	9.2	3799	15	12	-16
COC(=O)c1cc(NC(=O)Nc2ccccc2OC)cc(C(=O)OC)c1	-12	-3	0.3	5923	0	9	-32
O=c1[nH]c(=S)[nH]c(O)c1/C=N/N1CCOCC1	7	-9	4.0	3502	-10	-13	2
Fc1ccc(OCCCCCn2ccnc2)cc1	4	-9	2.4	nt	nt	nt	-20
CCC(Sc1ncnc2sc(C)c(C)c12)C(=O)OC (centres undefined)	16	-1	7.2	3358	nt	nt	-18
O=C(O)c1cc(-c2ccc3c(c2)OCO3)nc2ccc(Br)cc12	-9	0	13	4703	3	1	-12
COCc1cc(CNC(=O)C2CCC(=O)N(Cc3cccc(OC)c3)C2)[nH]n1 (centres undefined)	1	5	-0.3	5965	-1	3	8
CCC(c1nnnn1C(C)(C)C)N(Cc1ccco1)Cc1cc2cccc(C)c2[nH]c1=O (centres undefined)	-10	-8	1.2	15760	3	2	4
Cc1c(C)c2ccc(OCC(=O)N3CC[C@@]4(O)CCCC[C@H]4C3)cc2oc1=O	-9	12	7.0	5206	nt	nt	-19
O=C(c1n[nH]c2ccccc12)N1CCN(S(=O)(=O)c2ccccc2)CC1	5	nt	5.1	nt	13	1	nt
Cc1[nH]nc(SCC(=O)NC2CCCCC2)c1[N+](=O)[O-]	-9	-8	-1.3	4014	3	2	-34
O=C1CN(C(=O)c2cc([N+](=O)[O-])ccc2Cl)C(c2ccccc2)c2cc(F)ccc2N1 (centres undefined)	-7	0	5.3	1943	1	2	0
Cc1cc(C(=O)OCC(=O)NC2(C#N)CCCCC2)c(C)o1	3	nt	3.7	3413	7	7	-4
O=C(COC(=O)C(O)c1ccccc1)NC12CC3CC(CC(C3)C1)C2 (centres undefined)	-4	2	6.3	3268	12	4	-26
Clc1ccc2[nH]cc(-c3nnnn3-c3ccccc3)c2c1	-31	-7	-8.3	10140	0	2	-21
O=C1OCc2cc(NC(=O)C3COc4ccccc4O3)ccc21 (centres undefined)	10	-6	2.0	5659	nt	nt	2
O=C(O)c1c(NC(=O)N2CCCC2)sc2c1CCCC2	-1	-5	0.8	4274	5	-3	-9
CNc1c(-n2cc(C(=O)OC)c(C(=O)OC)c2C(=O)OC)c(=O)n(C)c(=O)n1C	0	12	3.0	2970	12	-2	-23
CC(OC(=O)c1ccc2c(=O)n3c(nc2c1)CCC3)C(N)=O (centres undefined)	3	7	4.7	4504	-6	13	-14
CC(=O)NCc1cccc(CNC(C)=O)n1	-4	-1	0.7	9987	5	1	-26
COC(=O)Nc1nncs1	6	-6	0.8	3025	8	-1	-16
CCc1cccc(Oc2nn[nH]n2)c1	1	11	7.6	24949*	3	3	-32
Cc1ccc(Sc2c(C(=O)Nc3ccc(F)cc3F)c(C(F)(F)F)nn2C)cc1	2	-6	0.3	5891	-11	-4	-19
COC(=O)c1cc(Sc2c(Cl)cccc2Cl)ccn1	-1	3	17	3484	-4	2	-5
Cc1ccc(S(=O)(=O)N(C)CC(=O)OCC(=O)c2c(N)n(C)c(=O)n(C)c2=O)cc1	-2	-3	3.1	2012	10	1	-3
Cc1ccc(OCCCC(=O)NCc2ccco2)c(C)c1	4	-11	2.2	nt	6	14	nt
NS(=O)(=O)c1cccc(NC(=O)c2cccs2)c1	-4	4	6.9	5989	12	9	-8

Screening data from PubChem BioAssay.
